Bioassay records: PubChem BioAssay, Broad Institute
FGF22 binding: binders of recombinant human FGF22 by thermal shift. 340,000 compounds, 1.5% hits. Q9HCT0. SYPRO orange fluorescence; percent of sucrose octasulfate shift, DMSO zero. calls only at 9.99 µM;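 active means melting point raised past a set limit in the mean and every replicate; three in four hits are not shown here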
Target sequence (Q9HCT0 whole entry, looked up): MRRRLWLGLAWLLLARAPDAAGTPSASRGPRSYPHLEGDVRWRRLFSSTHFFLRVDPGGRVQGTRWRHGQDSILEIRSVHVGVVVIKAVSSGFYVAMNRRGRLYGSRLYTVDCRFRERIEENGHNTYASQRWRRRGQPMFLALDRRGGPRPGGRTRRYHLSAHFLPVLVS
Calls only; i = inactive.

| Structure | FGF22 binding |
| --- | --- |
| Cc1noc(C)c1NC(=O)N(C)C[C@@H]1Oc2c(NC(=O)c3ccc(-c4nccs4)cc3)cccc2C(=O)N([C@H](C)CO)C[C@@H]1C | i |
| COc1ccccc1S(=O)(=O)N[C@H]1CC[C@@H](CC(=O)NCc2cccc(F)c2)O[C@H]1CO | i |
| CC(=O)N(C[C@@H]1N[C@@H](CO)[C@@H]1c1ccc(-c2ccccc2)cc1)C(C)C | i |
| O=C(C[C@H]1CC[C@H]2[C@@H](COC[C@@H](O)CN2Cc2cc(F)ccc2F)O1)NCc1ccccc1 | i |
| O=C(C[C@@H]1C[C@H]2c3cc(NC(=O)C4CCOCC4)ccc3O[C@H]2[C@H](CO)O1)NCc1ccc(Oc2ccccc2)cc1 | i |
| C[C@@H]1CCCCO[C@@H](CN(C)Cc2ccc(C(=O)O)cc2)[C@@H](C)CN([C@H](C)CO)C(=O)c2cc(NC(=O)c3ccncc3)ccc2O1 | i |
| COC(=O)c1cc2c(c3c4cc(OC)ccc4n(S(=O)(=O)c4ccc(OC)cc4)c13)C(=O)N(Cc1ccc(C(F)(F)F)cc1)C2 | i |
| C[C@@H]1CN([C@@H](C)CO)C(=O)c2cc(NC(=O)CCC(F)(F)F)ccc2O[C@H]1CN(C)S(=O)(=O)c1cn(C)cn1 | i |
| C[C@H]1CN([C@@H](C)CO)C(=O)c2cc(NS(=O)(=O)c3cn(C)cn3)ccc2O[C@H]1CN(C)C(=O)Nc1ccc(C(F)(F)F)cc1 | i |
| COc1ccc(S(=O)(=O)N(C)C[C@@H]2OCCCC[C@H](C)Oc3ccc(NS(=O)(=O)c4cn(C)cn4)cc3C(=O)N([C@@H](C)CO)C[C@H]2C)cc1 | i |
| C[C@@H](NC(=O)N(C)C[C@@H]1OCc2ccccc2-c2c(n(C)c3ccccc23)C(=O)N([C@@H](C)CO)C[C@@H]1C)c1ccccc1 | i |
| Cc1noc(C)c1S(=O)(=O)Nc1ccc2c(c1)CC(=O)N([C@@H](C)CO)C[C@@H](C)[C@H](CN(C)Cc1ccc(C(=O)Nc3ccccc3N)cc1)O2 | i |
| CN1CCN(C(=O)C[C@H]2CC[C@H]3[C@@H](COC[C@H](O)CN3Cc3ccc4c(c3)OCO4)O2)CC1 | i |
| CCCNC(=O)C[C@H]1CC[C@@H]2[C@H](COC[C@H](O)CN2C(=O)Nc2ccc3c(c2)OCO3)O1 | i |
| C[C@@H]1CN([C@H](C)CO)C(=O)Cc2cc(NC(=O)c3ccncc3)ccc2O[C@H]1CN(C)Cc1ccc(C(F)(F)F)cc1 | i |
| Cc1noc(C)c1NC(=O)N(C)C[C@@H]1OCCCC[C@H](C)Oc2ccc(NS(C)(=O)=O)cc2C(=O)N([C@H](C)CO)C[C@@H]1C | i |
| CCNC(=O)C[C@H]1CC[C@H]2[C@H](COc3ccc(NC(=O)c4cccc(C(F)(F)F)c4)cc3C(=O)N2C)O1 | i |
| C[C@H]1CN([C@@H](C)CO)C(=O)c2cccc(NC(=O)Nc3ccccc3)c2O[C@@H]1CN(C)C(=O)Nc1ccc2c(c1)OCO2 | i |
| C[C@@H]1CN([C@@H](C)CO)C(=O)c2cc(NC(=O)CCC(F)(F)F)ccc2O[C@@H]1CN(C)C(=O)Nc1ccc2c(c1)OCO2 | i |
| C[C@H](CO)N1C[C@H](C)[C@H](CN(C)C(=O)Nc2ccccc2)OCCCC[C@H](C)Oc2ccc(NS(=O)(=O)c3ccccc3)cc2C1=O | i |

| Structure | FGF22 binding |
| --- | --- |
| COc1ccc(NC(=O)Nc2cccc3c2O[C@H](CN(C)S(C)(=O)=O)[C@H](C)CN([C@H](C)CO)C3=O)cc1 | i |
| CCCC#Cc1ccc([C@@H]2[C@@H](CO)N(C(=O)C3CC3)[C@H]2C#N)cc1 | i |
| CCCC#Cc1ccc([C@H]2[C@@H](C#N)N(C(=O)CN3CCOCC3)[C@@H]2CO)cc1 | i |
| CC(C)COC(=O)N(C)C[C@@H]1OCc2ccccc2-c2ccccc2C(=O)N([C@H](C)CO)C[C@@H]1C | i |
| C[C@@H]1CN([C@H](C)CO)C(=O)c2cc(NS(C)(=O)=O)ccc2O[C@H]1CN(C)Cc1ccc(C(=O)O)cc1 | i |
| C[C@H](CO)N1C[C@H](C)[C@@H](CN(C)Cc2ccc(Oc3ccccc3)cc2)Oc2ccc(NC(=O)CCN3CCOCC3)cc2C1=O | i |
| CC(C)NC(=O)N(C)C[C@@H]1Oc2c(NC(=O)c3ccc(-c4nccs4)cc3)cccc2C(=O)N([C@@H](C)CO)C[C@H]1C | i |
| C[C@H](CO)N1C[C@H](C)[C@@H](CN(C)C(=O)NC2CCCCC2)OCCCC[C@H](C)Oc2ccc(NC(=O)Nc3ccc(C(F)(F)F)cc3)cc2C1=O | i |
| CO[C@@H]1CN(C)C(=O)c2ccc(NC(=O)C3CCOCC3)cc2OC[C@H](C)N(C(=O)c2ccccc2)C[C@@H]1C | i |
| CO[C@H]1CN(C)C(=O)c2cc(NC(=O)C3CCC3)ccc2OC[C@@H](C)N(C(=O)CN(C)C)C[C@@H]1C | i |
| CN(C)CCCNC(=O)C[C@H]1C=C[C@@H](NS(=O)(=O)c2ccccc2)[C@@H](CO)O1 | i |
| CC(=O)N1CC(=O)N2[C@H](CO)[C@@H](c3ccc(C#CC(C)C)cc3)[C@H]2C1 | i |
| C[C@H]1CN([C@@H](C)CO)C(=O)CCCn2nncc2CO[C@H]1CN(C)C(=O)Nc1ccc2c(c1)OCCO2 | i |
| C[C@H]1CN([C@@H](C)CO)C(=O)c2cccc(NS(=O)(=O)c3ccccc3)c2O[C@@H]1CN(C)C(=O)Nc1ccccc1 | i |
| O=C(NCc1ccc(F)cc1)[C@@H]1[C@@H](CO)[C@@H]2Cn3c(ccc(C4=CCCCC4)c3=O)[C@H]1N2 | i |
| COc1ccccc1NC(=O)N[C@H]1C=C[C@H](CC(=O)N[C@@H](C)c2ccccc2)O[C@@H]1CO | i |
| Cc1noc(C)c1NC(=O)Nc1cccc2c1O[C@H](CN(C)Cc1ccc(-c3ccccc3)cc1)[C@@H](C)CN([C@@H](C)CO)C2=O | i |
| C[C@@H]1CN([C@@H](C)CO)C(=O)CCCn2nncc2CO[C@H]1CN(C)C(=O)Nc1ccccc1 | i |
| CCC(=O)Nc1ccc2c(c1)C(=O)N(C)C[C@@H](OC)[C@H](C)CN(C(=O)C1CC1)[C@H](C)CO2 | i |
| C[C@H]1CN([C@@H](C)CO)C(=O)Cc2cc(NC(=O)Nc3ccc(F)cc3)ccc2O[C@@H]1CN(C)Cc1ccc(C(=O)O)cc1 | i |

| Structure | FGF22 binding |
| --- | --- |
| CCCC#Cc1ccc([C@H]2[C@H]3CN(Cc4cncnc4)CCCCN3[C@H]2CO)cc1 | i |
| C[C@@H]1CCCCO[C@H](CN(C)Cc2ccc3c(c2)OCO3)[C@H](C)CN([C@@H](C)CO)C(=O)c2cc(NC(=O)c3ccncc3)ccc2O1 | i |
| C[C@@H]1CN([C@H](C)CO)C(=O)c2cccc(NC(=O)Nc3ccccc3)c2O[C@@H]1CN(C)C(=O)Nc1ccccc1 | i |
| CO[C@H](CN(C)Cc1ccc(-c2ccccn2)cc1)[C@@H](C)CN(C(=O)Nc1ccc(F)cc1)[C@@H](C)CO | i |
| C[C@@H]1CN([C@@H](C)CO)C(=O)c2cc(C3=CCCCC3)cnc2O[C@@H]1CN(C)Cc1cccnc1 | i |
| C[C@@H]1CN([C@H](C)CO)C(=O)c2cccc(NS(=O)(=O)c3cccs3)c2O[C@H]1CN(C)S(=O)(=O)c1cn(C)cn1 | i |
| C[C@@H]1CCCCO[C@@H](CN(C)S(=O)(=O)c2cccs2)[C@H](C)CN([C@H](C)CO)C(=O)c2cc(NS(=O)(=O)c3cn(C)cn3)ccc2O1 | i |
| C[C@@H]1CN([C@H](C)CO)C(=O)c2ccccc2-c2ccccc2CO[C@H]1CN(C)C(=O)CCC(F)(F)F | i |
| C[C@@H]1CN([C@H](C)CO)S(=O)(=O)c2ccc(C#C[C@@H](C)O)cc2O[C@@H]1CN(C)C(=O)Cc1ccccn1 | i |
| C[C@H]1CN([C@@H](C)CO)C(=O)c2cccc(NC(=O)C3CCOCC3)c2O[C@@H]1CN(C)S(=O)(=O)c1ccccc1 | i |
| C[C@H](O)C#Cc1ccc2c(c1)O[C@H](CN(C)Cc1cccnc1)[C@H](C)CN([C@H](C)CO)S2(=O)=O | i |
| Cc1ccc(S(=O)(=O)N[C@@H]2CC[C@@H](CCn3cc(C(C)C)nn3)O[C@@H]2CO)cc1 | i |
| CCCNC(=O)Nc1ccc2c(c1)OC[C@@H](C)N(C(=O)c1ccccc1F)C[C@H](C)[C@@H](OC)CN(C)C2=O | i |
| COc1ccc(NC(=O)N(C)C[C@@H]2OCCCC[C@@H](C)Oc3ccc(NC(=O)NC4CCCCC4)cc3C(=O)N([C@H](C)CO)C[C@@H]2C)cc1 | i |
| C[C@@H]1CN([C@H](C)CO)C(=O)c2cccc(NC(=O)c3nc4ccccc4s3)c2O[C@@H]1CN(C)Cc1ccc(Oc2ccccc2)cc1 | i |
| CC(C)NC(=O)Nc1ccc2c(c1)C(=O)N([C@@H](C)CO)C[C@@H](C)[C@H](CN(C)C(=O)Nc1ccc(F)cc1)OCCCC[C@@H](C)O2 | i |
| Cc1ccc(S(=O)(=O)N(C)C[C@@H]2Oc3ccc(NC(=O)Cc4cn(C)c5ccccc45)cc3CC(=O)N([C@@H](C)CO)C[C@H]2C)cc1 | i |
| COc1ccccc1NC(=O)N(C)C[C@H]1OCc2cnnn2CCCC(=O)N([C@@H](C)CO)C[C@@H]1C | i |
| COc1ccc2c3c(n(C)c2c1)[C@H](CO)N(C)CC31CN(C(=O)CN2CCOCC2)C1 | i |
| C[C@@H]1CN([C@H](C)CO)C(=O)Cc2cc(NS(=O)(=O)c3ccccc3)ccc2O[C@H]1CN(C)S(=O)(=O)c1cccs1 | i |

Five entries from above, ordered by length of the SMILES, largest number first:
| Structure | FGF22 binding |
| --- | --- |
| C[C@H]1CN([C@@H](C)CO)C(=O)Cc2cc(NC(=O)Nc3ccc(F)cc3)ccc2O[C@@H]1CN(C)Cc1ccc(C(=O)O)cc1 | i |
| C[C@@H]1CN([C@@H](C)CO)C(=O)c2cc(NC(=O)CCC(F)(F)F)ccc2O[C@H]1CN(C)S(=O)(=O)c1cn(C)cn1 | i |
| C[C@@H]1CN([C@H](C)CO)C(=O)Cc2cc(NS(=O)(=O)c3ccccc3)ccc2O[C@H]1CN(C)S(=O)(=O)c1cccs1 | i |
| CN1CCN(C(=O)C[C@H]2CC[C@H]3[C@@H](COC[C@H](O)CN3Cc3ccc4c(c3)OCO4)O2)CC1 | i |
| CC(C)COC(=O)N(C)C[C@@H]1OCc2ccccc2-c2ccccc2C(=O)N([C@H](C)CO)C[C@@H]1C | i |

Further results:
| Structure | FGF22 binding |
| --- | --- |
| COc1ccc(S(=O)(=O)N(C)C[C@@H]2OCc3ccccc3-c3c(n(C)c4ccccc34)C(=O)N([C@H](C)CO)C[C@H]2C)cc1 | i |
| O=C(C[C@H]1CC[C@@H]2[C@H](COC[C@H](O)CN2CC2CCCCC2)O1)NCc1ccc(Cl)cc1 | i |
| C[C@@H]1CN([C@H](C)CO)C(=O)c2cc(NC(=O)Cc3ccccc3)ccc2O[C@H]1CN(C)Cc1ccc(C(=O)Nc2ccccc2N)cc1 | i |
| CC(C)C#Cc1ccc([C@@H]2[C@H]3CN(C(=O)c4ccc(F)cc4)CCCCN3[C@H]2CO)cc1 | i |
| Cc1noc(C)c1NC(=O)Nc1ccc2c(c1)C(=O)N([C@H](C)CO)C[C@@H](C)[C@@H](CN(C)Cc1ccc3c(c1)OCO3)OCCCC[C@@H](C)O2 | i |
| CN1CCN(C(=O)C[C@H]2CC[C@@H]3[C@H](COC[C@H](O)CN3C(=O)Nc3ccc(F)cc3)O2)CC1 | i |
| C[C@H](CO)N1C[C@H](C)[C@@H](CN(C)C(=O)Nc2ccc(F)cc2)OCc2cn(nn2)CCCC1=O | i |
| COCCCNC(=O)C[C@H]1C[C@@]2(C(=O)OC)C(=C[C@H](COCc3ccccc3)O[C@@H]2C)N(CCC2=CCCCC2)C1=O | i |
| CNC[C@H]1Oc2ccc(NC(=O)Nc3ccc(F)cc3)cc2C(=O)N([C@@H](C)CO)C[C@@H]1C | i |
| C[C@H]1CN([C@@H](C)CO)C(=O)c2ccccc2-c2ccccc2CO[C@@H]1CN(C)S(=O)(=O)c1cccs1 | i |
| C[C@@H]1CCCCO[C@H](CN(C)C(=O)Nc2ccccc2)[C@H](C)CN([C@@H](C)CO)C(=O)c2cc(NC(=O)Nc3ccc4c(c3)OCO4)ccc2O1 | i |
| C/C=C/c1ccc([C@@H]2[C@@H](CO)N(C(C)=O)C23CN(C(=O)c2ccc(F)cc2)C3)cc1 | i |
| C[C@H]1CCCCO[C@@H](CN(C)C(=O)Nc2ccc(F)cc2)[C@@H](C)CN([C@@H](C)CO)C(=O)c2cc(NC(=O)C3CCCCC3)ccc2O1 | i |
| O=C(C[C@@H]1CC[C@@H]2[C@H](COC[C@H](O)CN2S(=O)(=O)c2cccc(Cl)c2)O1)NCc1ccc2c(c1)OCO2 | i |
| C[C@H]1CN([C@@H](C)CO)C(=O)Cc2cc(NC(=O)CCC(F)(F)F)ccc2O[C@@H]1CN(C)C | i |
| CCCNC(=O)Nc1ccc2c(c1)C(=O)N(C)C[C@@H](OC)[C@@H](C)CN(C(=O)C1CCOCC1)[C@@H](C)CO2 | i |
| C[C@@H]1CN([C@H](C)CO)C(=O)c2cc(-c3ccccc3)cnc2O[C@H]1CN(C)C(=O)Nc1ccc2c(c1)OCO2 | i |
| COCCN(C[C@H]1[C@H](c2ccccc2)[C@H](CO)N1C(C)=O)C(=O)c1ccncc1 | i |
| CN1c2ccc(-c3ccccc3)cc2[C@@H]2[C@@H](CCN2C(=O)c2ccccn2)[C@H]1CO | i |
| COc1cccc(S(=O)(=O)Nc2ccc3c(c2)C(=O)N(C)C[C@H](OC)[C@@H](C)CN[C@H](C)CO3)c1 | i |

An excerpt from further up, for reference:
| Structure | FGF22 binding |
| --- | --- |
| CN1c2ccc(-c3ccccc3)cc2[C@@H]2[C@@H](CCN2C(=O)c2ccccn2)[C@H]1CO | i |
| COc1cccc(S(=O)(=O)Nc2ccc3c(c2)C(=O)N(C)C[C@H](OC)[C@@H](C)CN[C@H](C)CO3)c1 | i |

Not all compounds are listed. The share of hits here may be higher or lower than overall.
